Bioassay records: PubChem BioAssay, Broad Institute
Vaccinia inh: Vaccinia orthopox stage-specific inhibition; 89,000 tested, 0.01% active; activity change (mCherry), % (test concentration not listed); Vaccinia-infected cells, mCherry/Venus stage reporter fluorescence; hits give low values; some inactives read as strong as hits; AID 1053133;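 active = mCherry past -33% and 40 or more points under the early reporter, replicates agreeing; inconclusive = past -33% without that gap or agreement; tested in A549 cells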;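 note: scaled between vehicle wells and reference inhibitor wells; 23 nL library stock went into each well; one replicate is shown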
Vaccinia inh Venus: recorded beside Vaccinia inh, whose call it bears; activity change (Venus), %; measured here: Venus reporter, other viral stage;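 negative = less Venus signal; first of two replicates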
Active calls of the source: *; u = inconclusive; x = no result given. This is a subset; count on the stated rates, not on these rows.

entry	mol	Vaccinia inh Venus	Vaccinia inh
1	CC=Cc1ccc2n(c1=O)C[C@H]1[C@H](CO)[C@@H](C(=O)NCc3ccccn3)[C@@H]2N1C (mixture of isomers)	0	-4
2	Cc1noc(C)c1S(=O)(=O)Nc1ccc2c(c1)C(=O)N([C@@H](C)CO)C[C@@H](C)[C@@H](CN(C)Cc1ccc(C(=O)Nc3ccccc3N)cc1)O2	14	38
3	CNC[C@@H]1Oc2cc(C#CC3CCCCC3)ccc2S(=O)(=O)N([C@@H](C)CO)C[C@@H]1C	x	u
4	C[C@@H]1CN([C@@H](C)CO)C(=O)Cc2cc(NC(=O)NC3CCCCC3)ccc2O[C@@H]1CN(C)S(=O)(=O)c1ccc(F)cc1	-8	-11
5	C[C@@H]1CCCCO[C@@H](CN(C)C(=O)C2CCCCC2)[C@@H](C)CN([C@H](C)CO)C(=O)c2cc(NC(=O)c3ccccc3)ccc2O1	-12	-12
6	C[C@@H]1CN([C@H](C)CO)C(=O)Cc2cc(NC(=O)Nc3ccc(C(F)(F)F)cc3)ccc2O[C@@H]1CN(C)S(=O)(=O)c1cccs1	x	u
7	COc1ccc(CN2C[C@@H](O)COC[C@@H]3O[C@H](CC(=O)NCc4ccccc4Cl)CC[C@H]32)cc1	1	8
8	O=C(N[C@H]1CC[C@@H](CCn2cc(C3(O)CCCC3)nn2)O[C@@H]1CO)c1ccccc1F	5	-2
9	C[C@H]1CN([C@@H](C)CO)S(=O)(=O)c2ccc(C3=CCCCC3)cc2O[C@H]1CN(C)C(=O)CN(C)C	x	u
10	CCC(=O)Nc1ccc2c(c1)OC[C@@H](C)N(Cc1ccccc1OC)C[C@H](C)[C@@H](OC)CN(C)C2=O	-10	-8
11	CCCNC(=O)C[C@@H]1CC[C@H]2[C@@H](COC[C@H](O)CN2C(=O)c2cccnc2)O1	18	18
12	COC(=O)C[C@H]1C[C@H]2c3cc(NC(=O)NC4CCCCC4)ccc3O[C@H]2[C@@H](CO)O1	-11	-5
13	CN(C)CC(=O)Nc1ccc2c(c1)[C@@H]1C[C@H](CC(=O)NCc3ccncc3)O[C@@H](CO)[C@@H]1O2	0	7
14	C[C@H]1CN([C@@H](C)CO)C(=O)c2cc(-c3cccc(C#N)c3)cnc2O[C@H]1CN(C)C(=O)C1CCCCC1	-8	-12
15	COc1cccc(NC(=O)N(C)C[C@@H]2Oc3ncc(C#Cc4ccccc4)cc3C(=O)N([C@@H](C)CO)C[C@H]2C)c1	-29	-32
16	C[C@@H]1CN([C@@H](C)CO)C(=O)Cc2cc(N(C)C)ccc2O[C@H]1CN(C)Cc1ccccc1	-7	-8
17	CN(C)C(=O)c1ccc(-c2ccc(C3[C@@H]4CN(C(=O)C5CCCC5)C[C@H]3N4)cc2)cc1 (stereo partly specified)	-8	u
18	COc1ccc(CN(C)C[C@H]2Oc3ccc(NC(=O)Cn4cnnn4)cc3C(=O)N([C@H](C)CO)C[C@H]2C)cc1	7	19
19	CN(C)c1ccc2c(c1)[C@@H]1C[C@H](CC(=O)NCc3ccccc3)O[C@@H](CO)[C@@H]1O2	14	15
20	CC(=O)N1[C@H](C(=O)NCc2ccccc2Cl)[C@@H](CO)[C@@H]2Cn3c(ccc(-c4cncnc4)c3=O)[C@@H]21	7	15
21	COc1ccc(NC(=O)N[C@@H]2CC[C@@H](CCNS(=O)(=O)c3ccccc3F)O[C@H]2CO)cc1	-6	1
22	C[C@H](O)C#Cc1cnc2c(c1)C(=O)N([C@@H](C)CO)C[C@H](C)[C@@H](CN(C)C(=O)c1ccccc1)O2	10	12
23	Cn1cnc(CCNC(=O)[C@H]2[C@H](CO)[C@H]3Cn4c(cccc4=O)[C@H]3N2C(=O)Nc2ccccc2)c1	5	12
24	COc1ccc2c3c(n(C)c2c1)[C@H](CO)N(Cc1ccccc1)CC31CCN(C(=O)c2ccccc2F)CC1	-6	-10
25	C[C@@H]1CN([C@@H](C)CO)C(=O)c2cccc(NS(=O)(=O)c3cccs3)c2O[C@@H]1CN(C)C(=O)Nc1ccc(C(F)(F)F)cc1	-27	-33
26	COc1ccc(CN2C[C@@H](O)COC[C@@H]3O[C@@H](CC(=O)NCCN4CCCC4)CC[C@H]32)cc1	8	-3
27	C[C@@H]1CN([C@@H](C)CO)C(=O)c2c(c3ccccc3n2C)-c2ccccc2CO[C@@H]1CN(C)S(=O)(=O)c1cccc(C#N)c1	-26	-34
28	C[C@@H]1CN([C@@H](C)CO)C(=O)c2cc(NC(=O)Nc3cccc4ccccc34)ccc2O[C@@H]1CN(C)C(=O)Nc1ccc2c(c1)OCO2	17	25
29	Cc1ccc(S(=O)(=O)Nc2ccc3c(c2)C(=O)N([C@@H](C)CO)C[C@H](C)[C@@H](CN(C)C(=O)Nc2ccc(C(F)(F)F)cc2)OCCCC[C@@H](C)O3)cc1	x	u
30	COc1ccc(NC(=O)Nc2ccc3c(c2)C(=O)N([C@H](C)CO)C[C@H](C)[C@@H](CN(C)C(=O)Nc2ccccc2)OCCCC[C@H](C)O3)cc1	1	0
31	C[C@H]1CN([C@@H](C)CO)C(=O)Cc2cc(NC(=O)Cc3ccccc3)ccc2O[C@@H]1CN(C)CC1CC1	-3	8
32	Cc1noc(C)c1NC(=O)Nc1cccc2c1O[C@H](CN(C)C(=O)Nc1cccc3ccccc13)[C@H](C)CN([C@H](C)CO)C2=O	-8	-19
33	C/C=C/c1ccc([C@@H]2[C@@H](CN(C(=O)COC)C(C)C)N(C(C)=O)[C@H]2CO)cc1	-10	-7
34	COCC(=O)N1CC2(C1)CN(S(C)(=O)=O)[C@@H](CO)c1[nH]c3cc(OC)ccc3c12	12	22
35	O=C(C[C@H]1CC[C@H]2[C@@H](COC[C@@H](O)CN2Cc2cc(F)cc(F)c2)O1)NCc1cccc(F)c1	-10	-1
36	C[C@@H]1CCCCO[C@H](CN(C)Cc2ccccc2)[C@@H](C)CN([C@@H](C)CO)C(=O)c2cc(NS(=O)(=O)c3cn(C)cn3)ccc2O1	7	14
37	C[C@@H]1CCCCO[C@H](CN(C)S(=O)(=O)c2ccc(F)cc2)[C@@H](C)CN([C@H](C)CO)C(=O)c2cc(NC(=O)NC3CCCCC3)ccc2O1	14	18
38	Cc1noc(C)c1S(=O)(=O)Nc1cccc2c1O[C@H](CN(C)C(=O)Nc1cccc3ccccc13)[C@H](C)CN([C@@H](C)CO)C2=O	24	42
39	C[C@@H]1CN([C@@H](C)CO)C(=O)c2cc(NC(=O)Nc3ccc4c(c3)OCO4)ccc2O[C@@H]1CN(C)C(=O)Nc1ccc(C(F)(F)F)cc1	-2	-10
40	Cc1noc(C)c1NC(=O)Nc1ccc2c(c1)C(=O)N([C@@H](C)CO)C[C@@H](C)[C@H](CN(C)C(=O)NC1CCCCC1)O2	6	12
41	C[C@@H](NC(=O)C[C@@H]1C=C[C@@H](NC(=O)CN2CCOCC2)[C@@H](CO)O1)c1ccccc1	5	2
42	CO[C@@H]1CN(C)C(=O)c2ccc(NC(=O)NC(C)C)cc2OC[C@H](C)N(C(=O)C2CCC2)C[C@H]1C	18	9
43	COc1ccc(-c2cn(CC[C@H]3CC[C@@H](NC(=O)Cc4ccccn4)[C@@H](CO)O3)nn2)cc1	0	5
44	COc1ccc(S(=O)(=O)Nc2ccc3c(c2)C(=O)N([C@H](C)CO)C[C@@H](C)[C@H](CN(C)Cc2ccc4c(c2)OCO4)O3)cc1	-6	-6
45	CC(C)CC#Cc1ccc([C@@H]2[C@@H](CO)N3C(=O)CN(S(=O)(=O)c4cccc(F)c4)C[C@@H]23)cc1	x	u
46	N#C[C@H]1N[C@H](CO)[C@@H]1c1ccc(C#CC2CCCC2)cc1	1	-14
47	COc1ccc(NC(=O)Nc2ccc3c(c2)C(=O)N([C@H](C)CO)C[C@H](C)[C@H](CN(C)C(=O)C2CCCCC2)OCCCC[C@H](C)O3)cc1	-23	-32
48	C[C@@H]1CN([C@@H](C)CO)C(=O)c2cc(NC(=O)Nc3ccc(C(F)(F)F)cc3)ccc2O[C@@H](C)CCCCO[C@H]1CN(C)C(=O)C1CCCCC1	-19	-30
49	CO[C@H]1CC[C@H]2CCOc3ccc(C#N)cc3C(=O)N(C)C[C@H](OC)[C@H](C)C(=O)N(C)C[C@@H]1O2	7	4
50	O=C(CCN1CCCCC1)NCC[C@H]1CC[C@H](NC(=O)C2CCOCC2)[C@@H](CO)O1	12	9

Next part; it opens with the seven that closed the last part.
entry	mol	Vaccinia inh Venus	Vaccinia inh
44	COc1ccc(S(=O)(=O)Nc2ccc3c(c2)C(=O)N([C@H](C)CO)C[C@@H](C)[C@H](CN(C)Cc2ccc4c(c2)OCO4)O3)cc1	-6	-6
45	CC(C)CC#Cc1ccc([C@@H]2[C@@H](CO)N3C(=O)CN(S(=O)(=O)c4cccc(F)c4)C[C@@H]23)cc1	x	u
46	N#C[C@H]1N[C@H](CO)[C@@H]1c1ccc(C#CC2CCCC2)cc1	1	-14
47	COc1ccc(NC(=O)Nc2ccc3c(c2)C(=O)N([C@H](C)CO)C[C@H](C)[C@H](CN(C)C(=O)C2CCCCC2)OCCCC[C@H](C)O3)cc1	-23	-32
48	C[C@@H]1CN([C@@H](C)CO)C(=O)c2cc(NC(=O)Nc3ccc(C(F)(F)F)cc3)ccc2O[C@@H](C)CCCCO[C@H]1CN(C)C(=O)C1CCCCC1	-19	-30
49	CO[C@H]1CC[C@H]2CCOc3ccc(C#N)cc3C(=O)N(C)C[C@H](OC)[C@H](C)C(=O)N(C)C[C@@H]1O2	7	4
50	O=C(CCN1CCCCC1)NCC[C@H]1CC[C@H](NC(=O)C2CCOCC2)[C@@H](CO)O1	12	9
51	CO[C@@H]1CN(C)C(=O)c2cc(NS(=O)(=O)CC(F)(F)F)ccc2OC[C@H](C)N(C)C[C@H]1C	-1	-4
52	C[C@H](CO)N1C[C@H](C)[C@H](CN(C)S(=O)(=O)c2ccc(Cl)cc2)Oc2ccc(NS(=O)(=O)c3cn(C)cn3)cc2C1=O	0	4
53	C[C@@H]1CN([C@H](C)CO)C(=O)c2cc(NC(=O)Nc3ccccc3)ccc2O[C@@H](C)CCCCO[C@@H]1CN(C)Cc1ccc(C(=O)O)cc1	2	8
54	Cc1noc(C)c1NC(=O)N(C)C[C@H]1Oc2cc(C#CCN(C)C)ccc2S(=O)(=O)N([C@H](C)CO)C[C@@H]1C	16	31
55	C[C@H](CO)N1C[C@H](C)[C@H](CN(C)C(=O)NC2CCCCC2)Oc2ccc(NC(=O)CCCCCC(=O)Nc3ccccc3N)cc2CC1=O	11	-6
56	COc1ccc(C#Cc2ccc([C@@H]3[C@H](CO)N4CCCCN(C(=O)Cc5ccncc5)C[C@@H]34)cc2)cc1	x	u
57	COc1ccc(NC(=O)Nc2cccc3c2O[C@H](CN(C)S(=O)(=O)c2cn(C)cn2)[C@@H](C)CN([C@H](C)CO)C3=O)cc1	21	27
58	O=C(Nc1ccccc1)N1CCCCN2[C@@H](CO)[C@@H](c3ccc(Br)cc3)[C@@H]2C1	x	u
59	N#C[C@@H]1[C@@H](c2ccccc2C2=CCCCC2)[C@H](CO)N1C(=O)c1ccccn1	-1	-5
60	O=C(C1CCCC1)N1CC(=O)N2[C@H](C1)[C@H](c1ccc(-c3cccnc3)cc1)[C@@H]2CO	6	10
61	C[C@H]1CCCCO[C@@H](CN(C)Cc2ccc(C(=O)O)cc2)[C@@H](C)CN([C@@H](C)CO)C(=O)c2cc(NC(=O)C3CCCCC3)ccc2O1	11	22
62	C[C@H]1CN([C@@H](C)CO)C(=O)c2cc(NC(=O)CCCN(C)C)ccc2O[C@H]1CN(C)S(=O)(=O)c1ccc(F)cc1	6	15
63	Cc1noc(C)c1NC(=O)Nc1cccc2c1O[C@@H](CN(C)Cc1ccc(C(=O)Nc3ccccc3N)cc1)[C@H](C)CN([C@H](C)CO)C2=O	1	4
64	Cc1ccccc1S(=O)(=O)N1CCCCN2[C@H](CO)[C@H](c3ccc(-c4cncnc4)cc3)[C@H]2C1	-7	8
65	C[C@@H](O)C#Cc1ccc([C@H]2[C@@H](CO)N3CCCCN(C(=O)c4ccc(F)cc4)C[C@@H]23)cc1	13	34
66	COc1ccc(-c2cn(CC[C@H]3CC[C@H](NC(=O)c4cnccn4)[C@@H](CO)O3)nn2)cc1	9	7
67	CC(=O)N(C)C[C@@H]1Oc2ncc(C#Cc3ccccc3F)cc2C(=O)N([C@H](C)CO)C[C@@H]1C	4	5
68	O=C(C[C@H]1CC[C@H]2[C@@H](COC[C@H](O)CN2C(=O)Nc2ccc(F)cc2)O1)NCCc1ccncc1	14	17
69	C[C@H]1CN([C@@H](C)CO)C(=O)c2ccccc2-c2ccccc2CO[C@H]1CN(C)S(=O)(=O)c1ccc(C#N)cc1	-10	0
70	COC(=O)N(C)C[C@@H]1OCc2ccccc2-c2ccccc2C(=O)N([C@H](C)CO)C[C@H]1C	31	29
71	Cc1ccc(S(=O)(=O)Nc2ccc3c(c2)CC(=O)N([C@H](C)CO)C[C@H](C)[C@H](CN(C)Cc2ccncc2)O3)cc1	-5	-4
72	O=C(c1ccc(F)cc1)N1CC(=O)N2[C@H](C1)[C@@H](c1ccc(C#CC3CCCC3)cc1)[C@@H]2CO	-2	5
73	O=C(C[C@@H]1C=C[C@@H](NC(=O)Nc2ccc3c(c2)OCO3)[C@H](CO)O1)NCc1ccc(F)cc1	15	17
74	C[C@@H]1CN([C@@H](C)CO)C(=O)Cc2cc(NC(=O)Nc3ccc(C(F)(F)F)cc3)ccc2O[C@@H]1CN(C)C(=O)Nc1ccccc1	-16	-17
75	COc1ccccc1S(=O)(=O)N[C@H]1CC[C@H](CCn2cc(C3CC3)nn2)O[C@@H]1CO	-7	-2
76	COCC(=O)Nc1ccc2c(c1)[C@H]1C[C@@H](CC(=O)O)O[C@@H](CO)[C@H]1O2	8	17
77	CCCN(C)C[C@@H]1Oc2ncc(-c3cccc(C#N)c3)cc2C(=O)N([C@H](C)CO)C[C@H]1C	13	15
